Assay outcomes as filed in PubChem BioAssay.
FEN1 inh – inhibitors of human flap endonuclease 1; Recombinant FEN1 flap cleavage, fluorescence, 15 min; Potency, µM (series often up to 114 µM), without a hit: top-dose activity change, negative = inhibition, actives largely listed as inhibitors; hit rate 0.35% among 390,000; AID 588795; also: nearly all actives have a fitted effect of over 65% in size
Target sequence (P39748 whole entry, looked up): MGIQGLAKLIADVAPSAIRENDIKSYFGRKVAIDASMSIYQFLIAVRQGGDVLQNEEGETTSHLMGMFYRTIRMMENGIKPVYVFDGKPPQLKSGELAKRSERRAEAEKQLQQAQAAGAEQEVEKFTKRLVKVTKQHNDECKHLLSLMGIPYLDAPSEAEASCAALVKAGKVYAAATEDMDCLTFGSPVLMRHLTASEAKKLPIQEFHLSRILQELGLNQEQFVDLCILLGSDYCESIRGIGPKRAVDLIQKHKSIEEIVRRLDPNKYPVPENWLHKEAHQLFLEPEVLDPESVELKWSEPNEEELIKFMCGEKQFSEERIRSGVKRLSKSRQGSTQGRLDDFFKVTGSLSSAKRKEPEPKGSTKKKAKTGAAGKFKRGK
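Concentration–response screening of FEN1 (10 nM): 15 min compound preincubation at room temperature, reaction started with 50 nM substrate and read at 0 and 15 min. Corrected, normalized data were fitted by a four-parameter Hill equation.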
N370S GC – inhibitors or activators of N370S glucocerebrosidase for Gaucher disease. P04062. N370S GC spleen homogenate, 4MU-glucoside fluorescence. Potency, µM (titrated, usually from 59.4 µM), for inactives: at the highest dose activity change, negative = inhibition, actives largely listed as inhibitors. hit rate 0.092% among 330,000. AID 2101;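 also: 0% = full enzyme activity and -100% = no enzyme basal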
An asterisk follows results filed as active; ? = inconclusive; / = no result given. Calls follow the shape of the dose curve; as a rule, active = well fitted curve in the direction sought with a large enough effect; inconclusive = small, poorly fitted or top-dose-only effect, or another doubt; inactive = no such curve, though single readings can be large; an effect the other way counts as inactive or inconclusive. Unless noted, % is scaled to controls: 0 for no effect and ±100 for the full control effect; potency is read from the fitted curve at half-maximal effect.

1. Cc1cccc(Cn2c(C)c(C)c3cc(C(=O)NCCN4CCOCC4)ccc32)c1
2. Cc1ccc(NC(=O)OCC(F)(F)C(F)F)cc1NC(=O)OCC(F)(F)C(F)F
3. COCCn1c(CCC(=O)O)ccc1-c1cccs1
4. Cc1cccc(C2=NN(c3ccc(Br)cc3)[C@@H](C(=O)N3CCOC3=O)[C@@H]2C)c1
5. CCOC(=O)c1cc2c(=O)n3ccccc3nc2n(CCCOC)c1=NC(=O)C(C)(C)C
6. Cc1ccc(S(=O)(=O)NCC(=O)N(CC(=O)NCc2ccco2)Cc2ccco2)cc1
7. COc1ccc(-c2nc(C#N)c(N3CCOCC3)o2)cc1OC
8. CC(C)Nc1ccccc1

assay / compound,1,2,3,4,5,6,7,8
FEN1 inh,-2.3%,-21.2%,11.9%,-23.6%,13.1%,-2.3%,6.1%,2.0%
N370S GC,?,-13.4%,6.0%,?,?,-2.1%,5.5%,-0.9%

9. Cc1cc(NC(=O)c2ccc3c(c2)OCCO3)no1
10. Cc1c(C(=O)Nc2ccccc2N2CCN(C)CC2)oc2ccc(F)cc12
11. Cc1cc(Cl)n2c(nc3cc(F)c(F)cc32)c1C#N
12. CCCNC(=O)c1ccc(COc2cccc3ccccc23)o1
13. O=C(O)CCC(=O)/C=C/c1ccccc1
14. O=C(c1ccccn1)N1CCCC(N2CCN(Cc3ccc4c(c3)OCO4)CC2)C1 (centres undefined)
15. O=C(Nc1ccccc1-c1ccccc1)NC1CCN(CC(=O)N2CCOCC2)CC1
16. CCOc1ccc(NC(=O)c2cc3c(n(-c4ccc(OC)cc4)c2=O)CC(C)(C)CC3=O)cc1

assay / compound,9,10,11,12,13,14,15,16
FEN1 inh,-2.0%,?,-6.8%,-12.8%,-0.5%,-8.4%,-9.7%,-1.4%
N370S GC,-2.4%,-3.8%,8.2%,-6.7%,0.9%,-21.3%,5.0%,/

17. Cc1cccc2cc(C(c3nnnn3Cc3ccccc3)N3CCN(c4ccccc4)CC3)c(=O)[nH]c12 (centres undefined)
18. Cc1nc2ccccc2c(=O)n1-c1ccc(F)c(NC(=O)c2cccs2)c1
19. CC(=O)Oc1c(C)cc(OCC(O)CNC(C)C)c(C)c1C (centres undefined)
20. CC1CCCCN1CCCNC(=O)Cn1c(=O)c2cccn2c2ccccc21 (centres undefined)
21. Cc1ccc(NC2c3ncccc3C(=O)N2c2ccccc2C)cc1C (centres undefined)
22. O=C(NCCO)c1cc2c(s1)CCC2
23. N#CC1=C(N)OC(c2ccccc2)=C(C#N)C1c1ccc2c(c1)OCO2 (centres undefined)
24. CCc1ccc(S(=O)(=O)Nc2cc3c(cc2C)n(C)c(=O)c(=O)n3C)cc1

assay / compound,17,18,19,20,21,22,23,24
FEN1 inh,-16.1%,-1.7%,/,15.3%,-9.4%,-0.4%,-15.9%,-15.7%
N370S GC,2.1%,-10.6%,-3.7%,?,-0.6%,17.5%,-4.2%,/

25. CC(C)Oc1ccccc1C(=O)NC(CO)C(=O)O (centres undefined)
26. Cc1cc(C)n2nc(C(=O)N/N=C/c3ccc(Cl)cc3)nc2n1
27. Cc1c(NC(=O)c2ccc(F)c(S(=O)(=O)N3CCOCC3)c2)c(=O)n(-c2ccccc2)n1C
28. O=C(N/N=C1/CCCc2ccccc21)C(c1ccccc1)c1ccccc1
29. Cc1ccc(NC(=O)CCn2nc([N+](=O)[O-])cc2C)nc1
30. CC(=O)Nc1ccc(S(=O)(=O)Nc2nc3cc4c(cc3nc2Cl)OCCO4)cc1
31. O=S(=O)(CCSc1ccc(C(F)(F)F)cn1)c1ccccc1
32. O=c1cc[nH]c(=S)[nH]1

assay / compound,25,26,27,28,29,30,31,32
FEN1 inh,5.8%,0.8%,8.0%,5.8%,-9.0%,-1.6%,3.7%,/
N370S GC,-5.7%,-4.4%,5.7%,0.6%,-3.0%,14.9%,11.3%,-1.6%

33. CCCCN(CCCNc1ncnc2nc[nH]c12)c1ccccc1
34. CCN1C(=O)[C@@H]2[C@@H](c3ccc(-c4ccc(OC)cc4)c(OC)c3)N3CCCC[C@@]3(C(=O)OC)[C@@H]2C1=O
35. COc1ccc(OC(=O)c2c(C)nn(-c3ccccc3)c2C)cc1
36. CCCN(CC(=O)Nc1ccccc1C)C(=O)CCCNC(=O)c1ccc(Cl)cc1
37. Cc1nn(-c2ccccc2)c(Cl)c1/C=N/NC(=O)c1ccn[nH]1
38. CCOC(=O)c1[nH]c(C)c(C(=O)NCc2ccccc2Cl)c1C
39. CCOc1ccc(-c2cn3c(n2)sc2cc(C(=O)NCCC4=CCCCC4)ccc23)cc1
40. Cc1ccc(N(CC(=O)N2CCN(c3ccc(Cl)cc3)CC2)S(=O)(=O)c2c(C)nn(C)c2C)cc1

assay / compound,33,34,35,36,37,38,39,40
FEN1 inh,-20.9%,-13.7%,-7.3%,4.0%,-3.0%,-2.4%,12.6%,-3.0%
N370S GC,-23.4%,-15.0%,3.2%,1.7%,-3.3%,/,/,/

41. CCS(=O)(=O)Nc1ccc(-c2cn3ccsc3n2)cc1
42. Cc1ccc(C(=O)Cn2nnc(-c3cccs3)n2)cc1
43. Cc1cc(C)c2c(n1)sc1c(=O)[nH]c(SCc3ccccc3)nc12
44. Cc1nc2ccccn2c1C(=O)NNS(=O)(=O)c1ccc(Cl)cc1
45. COc1ccc(C(CNS(=O)(=O)c2cccc(F)c2)N2CCCC2)cc1 (centres undefined)
46. COc1ccc(S(=O)(=O)N2CCOCC2)cc1NC(=O)COC(=O)C1=COCCO1
47. CCc1ccc(OCC(=O)Nc2ccc3c(c2)COC3=O)cc1
48. CC(=O)OCC1OC(Oc2cc(OC(C)=O)c3c(=O)cc(-c4ccc(OC(C)=O)cc4)oc3c2)[C@@H](OC(C)=O)C(OC(C)=O)C1OC(C)=O (some centres undefined)

assay / compound,41,42,43,44,45,46,47,48
FEN1 inh,14.5%,-18.2%,-3.0%,20.7%,1.0%,-0.5%,0.0%,/
N370S GC,/,6.0%,0.1%,-9.1%,/,-4.6%,26.4%,7.0%

49. COc1ccc(-c2csc(-c3cccnc3)n2)cc1C
50. O=c1c2ccccc2nc(SCCN2CCOCC2)n1CCc1ccccc1
51. CCOC(=O)c1nn(-c2ccccc2)c2nc(Nc3ccccc3)cc(=O)n12
52. CCOC(=O)C1CCN(C(=O)CSCCSCC(=O)N2CCC(C(=O)OCC)CC2)CC1
53. COC(=O)c1nc2n(n1)C(c1ccc(OC)c(OC)c1OC)C1=C(CCCC1=O)N2 (centres undefined)
54. CCN(CC(=O)NCc1cccs1)C(=O)c1cc(S(=O)(=O)NCc2ccccc2)ccc1C
55. Cc1ccc2oc3c(SCc4nc5ccccc5[nH]4)nc(C)nc3c2c1
56. CC(C)CCNC(=O)[C@@H](c1ccccc1)N1Cc2ccccc2C1=O

assay / compound,49,50,51,52,53,54,55,56
FEN1 inh,-24.2%,-21.1%,2.2%,-1.7%,-8.4%,-10.6%,-13.9%,0.9%
N370S GC,0.0%,0.1%,-1.2%,4.1%,-13.9%,-6.5%,/,/

57. Cc1ccc(OCCOCCOc2cccc3cccnc23)c(Br)c1
58. Cc1csc(NC(=O)C2CSC3(C)CCC(=O)N23)n1 (centres undefined)
59. O=C(Nc1sc2c(c1C(=O)c1ccccc1)CCCC2)c1cccnc1
60. O=C(NC1CCCCC1)Nn1c(-c2ccccc2)nc2ccccc2c1=O
61. CCOC(=O)C1CCN(C(=O)COc2ccc(S(=O)(=O)N3CCOCC3)cc2)CC1
62. CCN(CC)C(=O)Cn1nnc(-c2ccc(S(C)(=O)=O)cc2)n1
63. Cc1cccc(Cl)c1OCCCCn1ccnc1
64. CCSc1nc2c(cnn2-c2ccccc2)c(=O)n1N

assay / compound,57,58,59,60,61,62,63,64
FEN1 inh,-15.4%,6.9%,-16.7%,31.0%,4.4%,20.3%,2.1%,-1.8%
N370S GC,13.8%,-4.2%,5.0%,8.2%,0.2%,2.1%,7.2%,6.2%

65. COc1cc(OC)c(NC(=O)C(C)n2nc(-c3ccc(C)cc3)c3c(c2=O)CCCC3)cc1Cl (centres undefined)
66. CCOC(=O)c1ccc(-c2c(-c3ccccc3OC)oc3ccccc23)cc1F
67. CC1(C)CC(NC(=S)Nc2ccc([N+](=O)[O-])cc2)CC(C)(C)N1
68. CN(C)S(=O)(=O)c1ccc(NC(=O)c2c(F)cccc2Cl)cc1
69. O=C(/C=C/c1cc(Br)ccc1F)OCC(=O)N1CCOCC1
70. COC(=O)[C@@]1(Cc2ccccc2)[C@H]2c3cc(C(=O)N4CCCC4)n(Cc4ccccc4)c3C[C@H]2CN1C(=O)c1ccccc1
71. COc1ccc(C(NC(=O)c2c(F)c(F)c(F)c(F)c2F)c2ccccc2)cc1 (centres undefined)
72. CCCCC(=O)Nc1nnc(SCC(=O)N2CCN(c3ccccc3OC)CC2)s1

assay / compound,65,66,67,68,69,70,71,72
FEN1 inh,-1.0%,-2.6%,3.5%,-12.8%,21.7%,/,-16.2%,0.0%
N370S GC,/,/,-5.6%,2.2%,/,-7.3%,10.6%,7.3%

73. COC(=O)CCCC1=CC2=C(c3ccccc3)C(=O)C(C)(OC(=O)C3CCCC3)C(=O)C2=CO1 (centres undefined)
74. CC1(C)CC(=O)c2cc(C(=O)O)c(=O)n(-c3ccccc3)c2C1
75. O=C(COc1cccc(-n2cnnn2)c1)NCCC1=CCCCC1
76. CCOC(=O)c1ccc(N2CCOCC2)c(NC(=O)c2c(-c3ccccc3)noc2C)c1
77. Cc1cc(C(=O)NNc2c(Cl)cccc2Cl)n(C(C)(C)C)n1
78. O=S(=O)(c1cc(Cl)ccc1Cl)N1CCN(Cc2ccc3c(c2)OCO3)CC1
79. Fc1cccc(CN2CCN(C(=S)NCCc3ccccc3)CC2)c1
80. O=C(/C=C/c1ccc(Cl)c([N+](=O)[O-])c1)Nc1ccc(N2CCCC2)c(Cl)c1

assay / compound,73,74,75,76,77,78,79,80
FEN1 inh,/,0.7%,-0.7%,-0.1%,12.7%,4.1%,-12.2%,-1.1%
N370S GC,-2.9%,5.8%,11.6%,12.9%,-1.2%,-10.2%,-10.5%,-3.7%

11 entries from above in a different format:
entry	SMILES	FEN1 inh	N370S GC
68	CN(C)S(=O)(=O)c1ccc(NC(=O)c2c(F)cccc2Cl)cc1	-12.8%	2.2%
69	O=C(/C=C/c1cc(Br)ccc1F)OCC(=O)N1CCOCC1	21.7%	/
70	COC(=O)[C@@]1(Cc2ccccc2)[C@H]2c3cc(C(=O)N4CCCC4)n(Cc4ccccc4)c3C[C@H]2CN1C(=O)c1ccccc1	/	-7.3%
71	COc1ccc(C(NC(=O)c2c(F)c(F)c(F)c(F)c2F)c2ccccc2)cc1 (centres undefined)	-16.2%	10.6%
72	CCCCC(=O)Nc1nnc(SCC(=O)N2CCN(c3ccccc3OC)CC2)s1	0.0%	7.3%
73	COC(=O)CCCC1=CC2=C(c3ccccc3)C(=O)C(C)(OC(=O)C3CCCC3)C(=O)C2=CO1 (centres undefined)	/	-2.9%
74	CC1(C)CC(=O)c2cc(C(=O)O)c(=O)n(-c3ccccc3)c2C1	0.7%	5.8%
75	O=C(COc1cccc(-n2cnnn2)c1)NCCC1=CCCCC1	-0.7%	11.6%
76	CCOC(=O)c1ccc(N2CCOCC2)c(NC(=O)c2c(-c3ccccc3)noc2C)c1	-0.1%	12.9%
77	Cc1cc(C(=O)NNc2c(Cl)cccc2Cl)n(C(C)(C)C)n1	12.7%	-1.2%
78	O=S(=O)(c1cc(Cl)ccc1Cl)N1CCN(Cc2ccc3c(c2)OCO3)CC1	4.1%	-10.2%

Other records.
81. Cc1cc(-c2nnc(SCC(=O)Nc3ccc(S(N)(=O)=O)cc3)n2N)n[nH]1
82. O=C(Nc1nc(-c2cc(Cl)sc2Cl)cs1)c1cccs1
83. C/C(=N\OCC(=O)OCC(=O)NC(=O)c1ccc(OC(F)F)cc1)c1ccc2c(c1)OCO2
84. Fc1ccc(Nc2nc(N/N=C/c3ccco3)nc(N3CCCCC3)n2)cc1
85. CCOC(=O)c1cc2sccc2n1CC(=O)Nc1ccc(OC)cc1
86. C[C@H](CO)N1C[C@H](C)[C@@H](CN(C)S(=O)(=O)c2cccs2)Oc2ccc(NC(=O)Nc3ccccc3)cc2C1=O
87. c1ccc(N2CCN(Cc3cnc(N4CCOCC4)s3)CC2)cc1
88. C=C[C@]1(C)C[C@H]1[C@H](NP(=O)(c1ccccc1)c1ccccc1)c1ccccc1

assay / compound,81,82,83,84,85,86,87,88
FEN1 inh,21.0%,-6.7%,-1.7%,-24.6%,-0.1%,-17.1%,13.4%,-20.6%
N370S GC,-4.3%,0.2%,-2.9%,13.3%,16.6%,/,-1.4%,-5.6%

Not all compounds are listed; most or all hits stand in other tables.
